Compound activity from PubChem BioAssay.
UCH37 inh – inhibitors of human UCH37 deubiquitinase, primary screen, biochemical, Ub-AMC cleavage, fluorescence; purified proteasome/UCH37; inhibition, % (test concentration not listed); 330,000 tested, 0.33% active; AID 588478, 2011;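 active = mean of two replicates above 20%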;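 also: 0% = compound-free wells with enzyme and 100% = wells lacking proteasome; stock transfer was 100 nL into about 20 µL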
Target sequence (Q9Y5K5 whole entry, looked up): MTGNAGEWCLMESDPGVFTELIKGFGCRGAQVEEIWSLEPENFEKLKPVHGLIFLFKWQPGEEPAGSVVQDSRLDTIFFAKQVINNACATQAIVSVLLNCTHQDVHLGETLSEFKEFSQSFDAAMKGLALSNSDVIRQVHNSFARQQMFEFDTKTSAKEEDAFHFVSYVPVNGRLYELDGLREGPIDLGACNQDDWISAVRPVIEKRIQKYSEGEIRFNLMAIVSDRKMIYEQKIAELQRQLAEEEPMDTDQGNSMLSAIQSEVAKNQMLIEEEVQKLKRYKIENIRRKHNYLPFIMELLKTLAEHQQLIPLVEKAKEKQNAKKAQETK
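Material: Human UCH37 enzyme supplied as purified proteasome complex | Schedule: 30 min preincubation with enzyme, 25 min cleavage at room temperature | Detection: AMC fluorescence 355/460 nm | Measure: % inhibition of Ub-AMC cleavage fluorescence | Controls: Wells without proteasome as full block, compound-free enzyme plus substrate as uninhibited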
Ecoli growth – E. coli growth inhibition, primary screen, OD600 | OD600 absorbance (concentration not given with the values) | AID 1053175, 2014 | 330,000 tested, 0.21% active | Escherichia coli growth, 23 h; stronger effect = lower value;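 active = OD600 absorbance below the run mean of sample wells minus 3.6 SD, in any replicate, cut at about 0.56 in these data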;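 also: stock transfer was 300 nL into about 60 µL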
Beta apoptosis – inhibitors of cytokine-induced beta cell apoptosis, primary screen, luminescence; INS-1E cytokine-induced death, ATP luminescence, 48 h; percent of positive-control rescue, neutral wells zero; protection from apoptosis, % (no concentration beside the values); 300,000 tested, 0.8% active;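 active = all replicates at 75% or more, or half of them and the mean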;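 also: 0% = cytokine-treated negative control wells and 100% = positive control rescue; higher means more ATP so stronger rescue from cytokine killing; wells of about 40 µL received 100 nL stock; the first replicate is given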
Bfl-1 A1 inh – caspase 3/7 activation in MEF A1-2A-BIM cells, primary screen, A1 inhibitor project, cell-based, luminescence, HTS | 330,000 tested, 0.066% active | caspase activation, % (no concentration beside the values) | Caspase-Glo 3/7 luminescence, 3 h; percent of clofoctol response, vehicle zero;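 active = over half of replicate activation scores above 10%, or exactly half above 10 with the replicate mean above 10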;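 also: wells of about 30 µL received 50 nL stock; many hits fall short of the cut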
MLL AF4-AF9 inh – inhibitors of AF4 peptide binding to AF9, primary screen, biochemical, AlphaScreen, biotin-AF4 peptide, FLAG-AF9, single point. Protein AF-9 (Homo sapiens), P42568. inhibition, % at 10 µM. 350,000 tested, 0.47% active;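 active = every replicate reaching a set inhibition limit, whatever the replicate mean, cut at about 25% in these data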;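 also: 0% = plate neutral control median and 100% = total signal loss; the record names both 10 and 1 µM as test concentration; the first replicate is given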
FGF22 binding – binders of human FGF22 protein, primary screen, FGF22 synaptogenesis inhibitor project, biophysical, thermal shift, single point. recombinant FGF22 thermal shift, SYPRO orange fluorescence; percent of sucrose octasulfate shift, DMSO zero. calls only at 9.99 µM. AID 651658, 2012. 340,000 tested, 1.5% active;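 active = melting point raised past a set limit in the mean and every replicate; three in four hits are not shown here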
Target sequence (Q9HCT0 whole entry, looked up): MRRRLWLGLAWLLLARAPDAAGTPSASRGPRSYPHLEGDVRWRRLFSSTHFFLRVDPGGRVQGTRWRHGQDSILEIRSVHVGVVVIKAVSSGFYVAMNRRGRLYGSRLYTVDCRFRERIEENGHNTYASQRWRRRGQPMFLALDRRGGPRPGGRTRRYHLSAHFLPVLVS
T cruzi repl – inhibitors of intracellular T. cruzi growth, primary screen, luminescence, NIH3T3 host cells; T. cruzi beta-gal in NIH3T3, 90 h; inhibition, % (test concentration not listed); 300,000 tested, 1.4% active;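 active = mean inhibition across valid replicates above about 55%, limit read from the data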;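 also: signal also drops with host cell toxicity which is not excluded here; 0% = plate median of DMSO wells and 100% = zero luminescence signal; higher percent means less beta-gal luminescence so fewer parasites; stock transfer was 50 nL into about 50 µL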
Ecoli rRNA inh – reduced GFP signal of wild-type E. coli, primary screen, bacterial rRNA inhibitor project, GFP/RFP fluorescence, OD600, single point; GFP signal change (wild-type ribosome), % (test concentration not listed); E. coli WT GFP vs humanized-ribosome RFP mutants, 24 h; stronger effect = lower value; DMSO median 0, no signal -100; 350,000 tested, 1.6% active;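 active = significant combined selectivity score with lowered wild-type GFP, culture density cut under 30%, mutant RFP and density less affected; inactive = any of these conditions unmet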; also: one replicate is shown; some compounds called inactive have numbers as strong as hits
Ecoli rRNA inh OD600 – further read-out of Ecoli rRNA inh, marked with its call; OD600 change, %; measured here: OD600 growth;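 optical density of the mix in the first replicate; 0 = DMSO median and -100 = no signal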
Ecoli rRNA inh RFP – further read-out of Ecoli rRNA inh, marked with its call; RFP signal change, %; measured here: RFP humanized mutant strains;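 first replicate; 0 = DMSO median and -100 = no signal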
An asterisk follows results filed as active. This is a subset (hit frequency here may not be typical).

Results for Cc1noc(C)c1C(=O)NC1CCCc2ccccc21 (centres undefined) ?
UCH37 inh: 5.2; Ecoli growth: 0.7; Beta apoptosis: -7; Bfl-1 A1 inh: 0.8; MLL AF4-AF9 inh: 3.7; FGF22 binding: inactive; T cruzi repl: -11; Ecoli rRNA inh: 11; Ecoli rRNA inh OD600: 6; Ecoli rRNA inh RFP: -3.0

What do the screens show for `Cc1sc(NC(=O)c2ccco2)nc1-c1ccccc1`?
UCH37 inh: -0.2; Ecoli growth: 0.69; Beta apoptosis: 4; Bfl-1 A1 inh: 0.3; T cruzi repl: -8

What do the screens show for `C=CCOC(=O)CC(NC(=O)c1ccccc1)c1ccccc1` (centres undefined)?
UCH37 inh: 0.3; Ecoli growth: 0.69; Beta apoptosis: -3; Bfl-1 A1 inh: 0.6; T cruzi repl: -7

How did CC(=O)CSc1ncnc2scc(-c3ccc(F)cc3)c12 do in these assays?
UCH37 inh: 5.4; Ecoli growth: 0.68; Beta apoptosis: 4; Bfl-1 A1 inh: 1.0; MLL AF4-AF9 inh: 1.5; FGF22 binding: inactive; T cruzi repl: -24; Ecoli rRNA inh: 5; Ecoli rRNA inh OD600: 8; Ecoli rRNA inh RFP: -1.0

What do the screens show for `Cc1cc(C(=O)NCC23CC4CC(CC(C4)C2)C3)c(C)o1`?
UCH37 inh: 1.3; Ecoli growth: 0.63; Beta apoptosis: 6; Bfl-1 A1 inh: -0.3; T cruzi repl: 61*

What do the screens show for `C=CCn1c(=O)c2ccccc2n2c(SCC(=O)NCc3cccs3)nnc12`?
UCH37 inh: -1.7; Ecoli growth: 0.74; Beta apoptosis: 4; Bfl-1 A1 inh: -0.1; T cruzi repl: 4

What do the screens show for `O=C(CCN1CCCC1)Nc1ccccc1`?
UCH37 inh: 4.8; Ecoli growth: 0.71; Beta apoptosis: 3; Bfl-1 A1 inh: 0.0; T cruzi repl: -12

How did CC(C)[C@H](NC(=O)C1CCN(S(=O)(=O)c2ccccc2)CC1)C(=O)NCc1ccccn1 do in these assays?
UCH37 inh: 0.3; Ecoli growth: 0.67; Beta apoptosis: 1; Bfl-1 A1 inh: 1.6; MLL AF4-AF9 inh: -1.6; FGF22 binding: inactive; T cruzi repl: 0; Ecoli rRNA inh: 16; Ecoli rRNA inh OD600: 16; Ecoli rRNA inh RFP: 3.1

How did COC(=O)c1c(C(=O)OC)c(-c2ccc(Cl)cc2)n2c1CS(=O)(=O)C2 do in these assays?
UCH37 inh: -2.2; Ecoli growth: 0.67; Beta apoptosis: 0; Bfl-1 A1 inh: 0.0; MLL AF4-AF9 inh: -0.6; FGF22 binding: inactive; T cruzi repl: 5; Ecoli rRNA inh: -4; Ecoli rRNA inh OD600: -10; Ecoli rRNA inh RFP: -4.0

What do the screens show for `CC(=O)c1cccc(N(C(=O)CNC(=O)c2cccs2)C(C(=O)NCC2CCCO2)c2ccccc2)c1` (centres undefined)?
UCH37 inh: 2.6; Ecoli growth: 0.69; Beta apoptosis: -10; Bfl-1 A1 inh: 1.2; MLL AF4-AF9 inh: -4.3; FGF22 binding: inactive; T cruzi repl: 3; Ecoli rRNA inh: 10; Ecoli rRNA inh OD600: 4; Ecoli rRNA inh RFP: 2.3

How did Cn1c(=O)oc2cc(S(=O)(=O)NCc3ccc(F)cc3)ccc21 do in these assays?
UCH37 inh: 5.1; Ecoli growth: 0.72; Beta apoptosis: -6; Bfl-1 A1 inh: 0.5; MLL AF4-AF9 inh: -4.2; FGF22 binding: inactive; T cruzi repl: -9; Ecoli rRNA inh: 7; Ecoli rRNA inh OD600: 7; Ecoli rRNA inh RFP: 1.7

How did CN(C)c1ncc(CN2CCC(CO)(CCCc3ccccc3)CC2)s1 do in these assays?
UCH37 inh: 3.8; Ecoli growth: 0.68; Beta apoptosis: -6; Bfl-1 A1 inh: -0.1; MLL AF4-AF9 inh: -1.9; FGF22 binding: inactive; T cruzi repl: 56*; Ecoli rRNA inh: 1; Ecoli rRNA inh OD600: 0; Ecoli rRNA inh RFP: -5.1

What do the screens show for `Cc1ccc(NC(=O)N2CCC(C(=O)NCc3ccccc3)CC2)cc1`?
UCH37 inh: 2.2; Ecoli growth: 0.65; Beta apoptosis: 4; Bfl-1 A1 inh: -0.4; T cruzi repl: -13

Results for Cn1nnnc1Sc1ncnc2scc(-c3ccc(C(F)(F)F)cc3)c12 ?
UCH37 inh: -0.8; Ecoli growth: 0.63; Beta apoptosis: 12; Bfl-1 A1 inh: 0.9; MLL AF4-AF9 inh: 5.0; FGF22 binding: inactive; Ecoli rRNA inh: -11; Ecoli rRNA inh OD600: -11; Ecoli rRNA inh RFP: 8.5

What do the screens show for `CCCCNc1c(NC(C)=O)c(=O)oc2ccccc12`?
UCH37 inh: 1.7; Ecoli growth: 0.7; Beta apoptosis: -7; Bfl-1 A1 inh: 0.2; MLL AF4-AF9 inh: -0.9; FGF22 binding: inactive; T cruzi repl: -14; Ecoli rRNA inh: 11; Ecoli rRNA inh OD600: 15; Ecoli rRNA inh RFP: 0.4

How did COC(=O)c1ccc(OCC(=O)c2ccc(C)c(C)c2)cc1 do in these assays?
UCH37 inh: -0.3; Ecoli growth: 0.63; Beta apoptosis: -9; Bfl-1 A1 inh: 0.7; MLL AF4-AF9 inh: 1.2; FGF22 binding: inactive; T cruzi repl: -19; Ecoli rRNA inh: -13; Ecoli rRNA inh OD600: -3; Ecoli rRNA inh RFP: 2.7

Results for CCOC(=O)c1oc2ccccc2c1NC(=O)c1cc(OC)cc(OC)c1 ?
UCH37 inh: -52; Ecoli growth: 0.7; Beta apoptosis: 13; Bfl-1 A1 inh: 0.4; MLL AF4-AF9 inh: -3.6; FGF22 binding: inactive; T cruzi repl: 10

How did CCc1c(C(=O)NNC(=S)NCC2CCCO2)csc1C (centres undefined) do in these assays?
UCH37 inh: 2.4; Ecoli growth: 0.71; Beta apoptosis: 1; Bfl-1 A1 inh: -0.5; MLL AF4-AF9 inh: 1.8; FGF22 binding: inactive; T cruzi repl: -17

Results for CC(C)(C)c1ccc(OCC(=O)NNC(=O)Cc2cccs2)cc1 ?
UCH37 inh: 2.2; Ecoli growth: 0.73; Beta apoptosis: -3; Bfl-1 A1 inh: 0.9; T cruzi repl: -4

How did COc1ccccc1-c1cn(C(C)(C)C)nc1C do in these assays?
UCH37 inh: 2.1; Ecoli growth: 0.71; Beta apoptosis: 1; Bfl-1 A1 inh: 0.3; MLL AF4-AF9 inh: -3.1; FGF22 binding: inactive; T cruzi repl: 9; Ecoli rRNA inh: 9; Ecoli rRNA inh OD600: 3; Ecoli rRNA inh RFP: -0.1

Results for Cc1cc(NC(=O)CSc2ccccn2)cc(NC(=O)CSc2ccccn2)c1 ?
UCH37 inh: 3.1; Ecoli growth: 0.65; Beta apoptosis: -7; Bfl-1 A1 inh: 0.0; MLL AF4-AF9 inh: 1.6; FGF22 binding: inactive; T cruzi repl: 13; Ecoli rRNA inh: 3; Ecoli rRNA inh OD600: -3; Ecoli rRNA inh RFP: 4.6

How did CCCCC(=O)NCCNc1nc2c(c(=O)n(C)c(=O)n2C)n1Cc1ccc(F)cc1 do in these assays?
UCH37 inh: 1.2; Ecoli growth: 0.72; Beta apoptosis: 2; Bfl-1 A1 inh: 0.8; T cruzi repl: 12

How did Cc1cccc(C)c1NC(=O)CNC(=O)CN1C(=O)NC2(CCc3ccccc32)C1=O (centres undefined) do in these assays?
UCH37 inh: -0.4; Ecoli growth: 0.7; Beta apoptosis: -2; Bfl-1 A1 inh: -0.5; MLL AF4-AF9 inh: 1.1; FGF22 binding: inactive; Ecoli rRNA inh: 9; Ecoli rRNA inh OD600: 9; Ecoli rRNA inh RFP: -0.3

Results for Cc1c(CCC(=O)O)c(=O)oc2c(C)c3occ(-c4ccc(Br)cc4)c3cc12 ?
UCH37 inh: -36; Ecoli growth: 0.71; Beta apoptosis: 6; Bfl-1 A1 inh: 0.6; MLL AF4-AF9 inh: -2.5; FGF22 binding: inactive; T cruzi repl: 8; Ecoli rRNA inh: -16*; Ecoli rRNA inh OD600: 4.8*; Ecoli rRNA inh RFP: 4.4*

How did CCC(c1nnc(SC(C)C(=O)NC2CC2)n1-c1ccc(OC)cc1)N(C)C (centres undefined) do in these assays?
UCH37 inh: -0.7; Ecoli growth: 0.63; Beta apoptosis: 0; Bfl-1 A1 inh: -0.1; MLL AF4-AF9 inh: 1.3; FGF22 binding: inactive; Ecoli rRNA inh: 9; Ecoli rRNA inh OD600: 11; Ecoli rRNA inh RFP: -1.1

What do the screens show for `O=C(COc1cccc2ccccc12)NNC(=O)Nc1ccccc1`?
UCH37 inh: 1.2; Ecoli growth: 0.67; Beta apoptosis: -3; Bfl-1 A1 inh: 0.2; T cruzi repl: -27; Ecoli rRNA inh: -33*; Ecoli rRNA inh OD600: -24*; Ecoli rRNA inh RFP: -0.8*

What do the screens show for `Cc1cc(C)cc(NC(=S)N2CCC(NC(=O)c3ccco3)CC2)c1`?
UCH37 inh: 1.0; Ecoli growth: 0.55; Beta apoptosis: -2; Bfl-1 A1 inh: 0.4; MLL AF4-AF9 inh: -0.9; FGF22 binding: inactive; T cruzi repl: 25; Ecoli rRNA inh: 5; Ecoli rRNA inh OD600: -1; Ecoli rRNA inh RFP: 0.6

Results for CC1(C)CC[C@@]23CC[C@]4(C)[C@@](OC2=O)(C3C1)[C@H]1O[C@H]1C1[C@@]2(C)CC[C@H](O)C(C)(C)C2CC[C@]14C (some centres undefined) ?
UCH37 inh: 6.3; Ecoli growth: 0.77; Beta apoptosis: 3; Bfl-1 A1 inh: -0.3; T cruzi repl: 3

How did NC(=O)C1CCN(C(=O)c2ccc(Cl)c(S(=O)(=O)NCc3ccco3)c2)CC1 do in these assays?
UCH37 inh: -0.1; Ecoli growth: 0.64; Beta apoptosis: -5; Bfl-1 A1 inh: 0.9; MLL AF4-AF9 inh: -8.0; FGF22 binding: inactive; Ecoli rRNA inh: 6; Ecoli rRNA inh OD600: 3; Ecoli rRNA inh RFP: -1.6

How did O=C(Nc1ccsc1C(=O)O)c1ccccc1 do in these assays?
UCH37 inh: 5.0; Ecoli growth: 0.62; Beta apoptosis: -3; Bfl-1 A1 inh: -5.1; MLL AF4-AF9 inh: -2.5; FGF22 binding: inactive; T cruzi repl: -9; Ecoli rRNA inh: 11; Ecoli rRNA inh OD600: -1; Ecoli rRNA inh RFP: -1.2
